Assay outcomes from PubChem.
INS promoter inh = TRM-6 insulin promoter activity inhibition | TRM-6 cells (human fetal islet line), insulin promoter-eGFP reporter, imaging; reporter expression induced with tamoxifen | inhibition, % at 2 µM | 0.9% of 130,000 active | AID 1273;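 active means inhibition above the mean plus 3 SD, with well images judged a real hit on visual review, cut at about 60% in these data, passing the limit was not always enough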
GALR2 ag = agonists of human galanin receptor 2 (GALR2) | activation, %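 (tested at 5 µM)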 | GALR2-expressing cells, agonist activation read-out | 0.48% of 140,000 active;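 active means above mean plus 3 SD of all compounds, about 5% in these data, not always enough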;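 further: 0% = vehicle buffer wells and 100% = reference agonist at full effect; tested in CHO reporter cells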
Target sequence (O43603 whole entry, looked up): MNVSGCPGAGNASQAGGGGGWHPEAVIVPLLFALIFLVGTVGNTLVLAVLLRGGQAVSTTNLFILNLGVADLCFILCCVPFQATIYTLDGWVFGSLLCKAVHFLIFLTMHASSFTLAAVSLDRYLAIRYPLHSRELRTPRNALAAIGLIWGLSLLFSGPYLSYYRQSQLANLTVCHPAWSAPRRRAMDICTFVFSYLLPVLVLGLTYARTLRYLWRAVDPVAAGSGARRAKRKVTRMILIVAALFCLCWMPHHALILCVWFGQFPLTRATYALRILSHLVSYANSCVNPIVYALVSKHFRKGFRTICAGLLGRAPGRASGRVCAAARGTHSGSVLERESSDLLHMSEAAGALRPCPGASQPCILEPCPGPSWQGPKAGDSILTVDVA
PKD1 inh = inhibitors of human PKD1 kinase; Q15139; PKD1 kinase fluorescence polarization assay; inhibition, %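 (about 10 µM by stock and volumes)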; 0.056% of 200,000 active; AID 797;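 active means inhibition of 50% or more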;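 further: controls were vehicle for no effect and a reference inhibitor for full effect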
RGS16-Gao HTS = modulates binding between human RGS16 and Galphao. bead-based flow cytometry RGS16-Galphao binding, fluorescence; actives lie on both sides. binding response (% of control), % at 10 µM. 0.38% of 220,000 active;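 active means below 25% or above 175%, edge rows of some plates excepted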;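 further: Galphao activated by GDP with aluminum fluoride before binding; 100% = wells without compound and 0% = beads without RGS; some results beyond the cut were filed as inactive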
Target sequence (O15492 whole entry, looked up): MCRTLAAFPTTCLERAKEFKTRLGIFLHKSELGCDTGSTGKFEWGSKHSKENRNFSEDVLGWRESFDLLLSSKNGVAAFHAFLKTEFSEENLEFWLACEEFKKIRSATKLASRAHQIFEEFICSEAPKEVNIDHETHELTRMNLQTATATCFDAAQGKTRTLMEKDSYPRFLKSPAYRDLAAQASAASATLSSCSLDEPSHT
Target sequence (P09471 whole entry, looked up): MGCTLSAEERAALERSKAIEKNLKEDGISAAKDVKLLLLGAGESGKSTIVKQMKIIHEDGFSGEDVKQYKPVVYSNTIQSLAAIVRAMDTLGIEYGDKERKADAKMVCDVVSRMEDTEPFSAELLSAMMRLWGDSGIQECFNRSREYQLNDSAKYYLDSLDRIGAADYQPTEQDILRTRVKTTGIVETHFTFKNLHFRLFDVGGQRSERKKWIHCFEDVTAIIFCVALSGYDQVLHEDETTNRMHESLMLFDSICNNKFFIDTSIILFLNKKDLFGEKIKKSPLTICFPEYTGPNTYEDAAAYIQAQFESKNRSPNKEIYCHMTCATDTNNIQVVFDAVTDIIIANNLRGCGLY
HSV augment = HSV replication enhancement; HSV replication augmentation in cells, fold increase; maximum fold increase; 0.005% of 220,000 active; AID 1956;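 active means peak rise of 1.5-fold or more in the series; tested in PC3 cells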;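 further: first round at 10 µM; read as green reporter fluorescence; hits show the peak of a series up to 25 µM; 1 = signal of infected wells without compound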
INS promoter inh cell count = recorded beside INS promoter inh, whose call it bears; normalized cell count, %; measured here: cell count, toxicity; reference of the scale not given here;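 cells exposed to compound for 48 h; stained nuclei by imaging scaled within each plate; lower means fewer cells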
HSV augment primary fold = also measured in HSV augment; calls as there; fold increase; compound at 10 µM; measured here: primary screen fold increase 10 uM; tested in PC3 cells;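 GFP signal in the first replicate; 1 = infected wells without compound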
* hit, by the source's call; i = inactive; · = no result given.

SMILES	INS promoter inh	INS promoter inh cell count	GALR2 ag	PKD1 inh	RGS16-Gao HTS	HSV augment	HSV augment primary fold
N#Cc1ccc(NC(=O)COC(=O)CCNS(=O)(=O)c2ccccc2)cc1	22.2	119.3	-1.5	4.0	107.7	i	0.98
COc1ccccc1/C=C/C=N/NC(=O)c1cnccn1	·	·	·	-3.7	112.6	i	1.03
C/C(CC(=O)Nc1ccc(OCc2ccccc2)cc1)=N\NC(=O)C(=O)Nc1ccccc1C	-153.3	106.6	-1.9	1.4	101.3	i	0.91
CC(=O)c1ccc(NC(=O)C(C)N(C)CC(=O)Nc2ccccc2Cl)cc1 (stereo not drawn)	·	·	·	-3.8	96.3	i	0.98
CC(C)C(=O)N=C1SC2CS(=O)(=O)CC2N1Cc1ccccc1 (stereo not drawn)	-13.9	85.2	0.6	-8.9	106.0	i	1
CC(C)C[C@H](NC(=O)c1nc[nH]c1C(=O)N[C@@H](CCCCNC(=O)OC(C)(C)C)C(=O)OC(C)(C)C)C(=O)OC(C)(C)C	·	·	·	·	100.5	i	0.84
c1ccc2[nH]c(SCc3ccc(-c4nnco4)cc3)nc2c1	-16.1	83.9	-2.9	-2.6	102.0	i	0.96
CC(=O)Nc1cccc(-n2nnc(SCC(N)=O)n2)c1	·	·	·	·	105.5	i	1.05
Cc1ccc2c(C)nc(Nc3ncc4c(n3)CCCC4=O)nc2c1	-320.0	90.4	-1.4	-0.6	·	i	0.77
C[C@@H]1C=C(C(=O)O)O[C@H](OCc2ccc(CO)cc2)C1	·	·	·	1.5	103.3	i	0.93

Part of the list above with just INS promoter inh, HSV augment primary fold and PKD1 inh:
molecule | INS promoter inh | HSV augment primary fold | PKD1 inh
CC(C)C(=O)N=C1SC2CS(=O)(=O)CC2N1Cc1ccccc1 (stereo not drawn) | -13.9 | 1 | -8.9
CC(=O)c1ccc(NC(=O)C(C)N(C)CC(=O)Nc2ccccc2Cl)cc1 (stereo not drawn) | · | 0.98 | -3.8
Cc1ccc2c(C)nc(Nc3ncc4c(n3)CCCC4=O)nc2c1 | -320.0 | 0.77 | -0.6

(cont.)
SMILES	INS promoter inh	INS promoter inh cell count	GALR2 ag	PKD1 inh	RGS16-Gao HTS	HSV augment	HSV augment primary fold
Cc1ccc(C(C(=O)NC2CCCC2)N(Cc2cccs2)C(=O)c2csnn2)o1 (stereo not drawn)	0.0	79.3	-0.9	-0.9	101.5	i	1.19
O=C(O)CN(c1ccccc1)C1SC(=O)NC1=O (stereo not drawn)	-28.6	143.4	-2.8	2.2	105.4	i	1.06
CC(C)N1C(=O)C2C(C(=O)NC3CCCCC3)C3C=CC2(O3)C1C(=O)NC1CCCC1 (stereo not drawn)	2.8	71.4	-1.0	-4.0	102.3	i	1
O=C(O)c1c(N2CCCCC2)ccc([N+](=O)[O-])c1N1CCCCC1	·	·	·	·	100.4	i	1
O=C(NCC1(c2ccccc2)CCOCC1)c1cccs1	·	·	·	7.7	102.1	i	0.93
Cc1ccc(Cn2cccc2/C=C2/C(=N)N3C=CSC3=NC2=O)cc1	28.6	84.3	1.7	6.3	104.0	i	1
COc1ccc(CNC(=O)CSCc2cccc(Cl)c2)cc1	-53.1	91.2	-0.3	-6.8	100.8	i	1.03
Cn1c(=O)[nH]c(=O)c2c1nc(N1CCOCC1)n2CCSc1ncccn1	-11.1	143.3	-3.5	-7.1	·	·	·
COc1ccc(NC(=O)c2ccccc2Sc2ccc(NC(C)=O)nc2)cc1	-72.7	86.2	·	0.7	102.1	i	0.94
Cc1sc2nc(C3CC3)nc(SCC(=O)N3c4ccccc4CC3C)c2c1C (stereo not drawn)	-27.3	91.7	-1.7	-3.2	100.8	i	0.51
O=C(c1cc(Cl)nc2ccccc12)N1CCCCC1	-100.0	134.2	-2.5	-8.8	102.0	i	0.91
COc1cccc(-n2nnc3c(=O)n(Cc4ccccc4Cl)cnc32)c1	56.2	129.4	-1.1	-7.9	94.2	i	0.94
Cc1ccsc1/C=N/N1CCOCC1	·	·	·	-10.2	101.6	i	1.01
COc1cc(/C=N/NC(=O)c2cncc(Br)c2)ccc1OC(=O)c1ccc2c(c1)OCO2	·	·	-2.6	-16.6	104.3	i	0.91
O=C(Nc1ccccn1)c1ccc(Cl)c([N+](=O)[O-])c1	21.4	128.9	·	-5.6	116.9	i	1.06
Cc1cccc(Cn2nnc3c2C(=O)c2ccccc2C3=O)c1	-69.2	143.8	-1.4	-1.2	90.5	i	0.87
O=C(Nc1cccc(S(=O)(=O)NC2=NCCCCC2)c1)c1cc(-c2ccco2)nc2ccccc12	·	·	·	·	97.8	i	0.9
O=C(O)c1nc(-c2ccccc2)n(-c2ccccc2)n1	-38.5	102.2	0.7	3.8	103.1	·	·
Cc1cc(-c2nn(-c3ccccc3F)cc2CN2CCCC(C(N)=O)C2)c(C)s1 (stereo not drawn)	·	·	·	-7.5	108.8	i	0.82
O=C(NCCN1C(=O)C2C3C=CC(C3)C2C1=O)N1CCOCC1 (stereo not drawn)	·	·	-1.0	9.9	102.6	i	0.97

In the list so far, these contain a furan ring, fused or not.
SMILES	INS promoter inh	INS promoter inh cell count	GALR2 ag	PKD1 inh	RGS16-Gao HTS	HSV augment	HSV augment primary fold
Cc1ccc(C(C(=O)NC2CCCC2)N(Cc2cccs2)C(=O)c2csnn2)o1 (stereo not drawn)	0.0	79.3	-0.9	-0.9	101.5	i	1.19
O=C(Nc1cccc(S(=O)(=O)NC2=NCCCCC2)c1)c1cc(-c2ccco2)nc2ccccc12	·	·	·	·	97.8	i	0.9

The results go on.
SMILES	INS promoter inh	INS promoter inh cell count	GALR2 ag	PKD1 inh	RGS16-Gao HTS	HSV augment	HSV augment primary fold
COc1ccc(-c2nc(C(F)(F)F)c(OC)o2)cc1OC	-31.4	148.2	0.3	-10.2	72.2	i	0.98
COC(=O)Nc1nnc(SCc2ccc(C)cc2)s1	52.0	28.8	-1.2	-4.2	105.8	i	1.05
O=C(COc1ccc(-c2ccccc2)cc1)N1CCCC1	25.9	118.9	·	-4.1	97.1	i	0.84
CCCc1c(C)nn(-c2ncccc2[N+](=O)[O-])c1C	·	·	·	-6.1	103.9	i	0.94
CC1CCN(c2c(NCc3ccc(C(=O)N(C)C4CCCCC4)cc3)c(=O)c2=O)CC1	·	·	·	·	82.5	i	1.01
Cc1ccccc1Nc1nc(-c2sc(NC(=O)c3ccc([N+](=O)[O-])cc3)nc2C)cs1	-16.2	115.7	-2.2	-5.2	77.3	i	0.61
COc1ccc(CC(=O)NCC(=O)N/N=C/c2ccc(C)o2)cc1	·	·	-0.1	12.2	103.5	i	1.04
Nc1nc2c(s1)C(=O)CCC2	·	·	-0.2	7.7	97.7	i	0.9
NC(=O)c1c(NC(=O)CSc2nnc(-c3ccccc3)n2CC2CCCO2)sc2c1CCC2 (stereo not drawn)	-19.4	124.2	-2.4	-9.5	104.0	i	1.04
CCn1c(COc2cccc(OC)c2)nnc1SCC(=O)Nc1cccc(OC)c1	·	·	-2.1	-3.6	100.2	i	0.77
COCCCNC(=O)CCC(=O)NNc1nc2ccccc2c2nc(-c3ccccc3)nn12	·	·	-0.8	-10.9	108.2	i	0.92
CC(=O)C(Sc1ccc2nnc(-c3ccc(C)cc3)n2n1)C(C)=O	·	·	-1.1	-12.4	103.1	i	0.9
CCOC(=O)c1c(NC(=O)CSc2nnc3c(n2)[nH]c2ccccc23)sc2c1CCN(C)C2	-50.0	91.7	0.0	-0.9	·	i	0.957
O=C(/C=C/c1ccc2ccccc2n1)N1CCN(S(=O)(=O)c2ccccc2F)CC1	·	·	·	·	96.5	i	0.78
Cc1ccc(OCC(=O)Nc2cccc(-c3nnc(-c4ccccc4)o3)c2)c(C)c1	-9.7	179.2	-1.9	-3.4	96.8	i	0.95
O=c1cc2c(nn1Cc1cccc([N+](=O)[O-])c1)-c1ccccc1CC2	·	·	·	5.9	103.3	i	1.09
Cc1c(C=O)c2ccccn2c1C(=O)c1ccccc1	7.1	145.8	-0.8	7.3	98.5	i	0.96
O=C(Nc1ncc(C(F)(F)F)cc1Cl)c1ccc(S(=O)(=O)N2CCOCC2)cc1	·	·	·	-1.6	103.9	i	0.97
O=C(Nc1ccccc1Sc1ccccc1)C1CCCO1 (stereo not drawn)	37.1	115.6	-0.5	-4.1	83.1	i	0.9
CC(=O)Nc1ccccc1OC(C)C(=O)N1CCC(C)CC1 (stereo not drawn)	·	·	·	-2.5	98.7	i	1.03
Cc1ccc(-n2c(Cc3ccccc3)n[nH]c2=S)c(C)c1	42.1	81.6	·	3.4	94.6	i	1.03
Cc1nc(-c2ccccc2)sc1C(=O)CSc1ccc(Cl)cc1	40.0	98.2	-1.2	-10.3	118.1	i	0.97
Cc1ccc(-c2cc(C(=O)N3CCN(c4ccc(F)cc4)CC3)c3ccccc3n2)o1	·	·	0.7	-2.1	72.8	i	0.9
Cc1cc(Nc2ccc(F)cc2F)n2nc(C)nc2n1	·	·	-0.8	3.6	104.4	i	1.21
COc1ccc(-c2nnn3c2nc(NCc2ccccc2)c2ccccc23)cc1	·	·	·	-1.4	101.7	i	0.85
Cc1cc(C(=O)COC(=O)c2cc(Cl)ccc2N)c(C)n1Cc1ccco1	7.9	154.5	0.2	-6.0	114.7	i	0.99
O=C1C2CCCCC2C(=O)N1c1ccc(NC2CCN(Cc3ccccc3)CC2)c([N+](=O)[O-])c1 (stereo not drawn)	·	·	·	7.3	115.8	i	0.88
Cc1cccc(/C(N)=N/OC(=O)c2ccccc2Cl)c1	·	·	·	-1.4	103.3	i	0.96
COc1ccc(OC)c(S(=O)(=O)NCCC2=CCCCC2)c1	-207.4	83.2	-1.1	-9.4	99.3	i	1.05
Cc1ccc(NC(=S)N(CCCN(C)C)Cc2cc3cc4c(cc3[nH]c2=O)OCO4)c(C)c1	0.0	96.5	·	-8.3	34.4	i	1.07
COc1ccc(C(=O)N/N=C(\C)CC(=O)Nc2ccc(Cl)cn2)cc1	·	·	·	·	90.9	i	1.07
Cc1ccc(-n2cnc3sc(C)c(C)c3c2=O)cc1	41.2	96.5	·	11.1	101.0	i	0.89
OCc1cn(-c2ccccc2)nc1-c1ccc2c(c1)OCCO2	24.1	174.1	0.6	-12.6	98.5	i	0.77
C#CC(CC)(CC)NC(=O)NC1CCCCC1	·	·	·	1.2	103.7	i	1.06
CCN(CC)S(=O)(=O)c1ccc(Cl)c(C(=O)NCc2ccccc2Cl)c1	-52.6	83.2	-1.5	-7.5	108.0	i	0.827
c1ccc(Cc2noc(CN3CCN(C4CCc5ccccc5C4)CC3)n2)cc1 (stereo not drawn)	·	·	·	-1.4	101.5	i	0.74
CCOC(=O)c1ccc(NC(=S)NCc2cccnc2)cc1	·	·	·	-1.4	107.3	i	0.96
O=C(NCc1ccc(Cl)cc1)C(=O)N/N=C/c1ccc(Br)cc1	-64.3	58.6	·	-3.0	89.5	i	0.95
Cc1cccc(C)c1N1CCN(S(=O)(=O)N2CCCCC2)CC1	-11.6	147.2	·	-1.8	99.2	i	1.2
O=C(CN1CCCC1)N1CCCC(c2ccc(F)cc2)c2ccc(F)cc21 (stereo not drawn)	·	·	-1.4	-8.7	110.1	i	0.97
O=C1CCc2cc(S(=O)(=O)N3CCCC3C(=O)N3CCN(c4ccccc4F)CC3)ccc2N1 (stereo not drawn)	·	·	-1.9	-0.3	106.7	i	1.03
COc1ccc(NC(=O)c2cn(CCC#N)nc2-c2cc3ccccc3o2)cc1	·	·	·	-2.9	98.7	i	0.99
c1ccc(CNc2nc3ccccc3n3cnnc23)nc1	·	·	-2.5	-7.0	102.8	i	0.77
Cc1ccc(OCC(=O)Nc2ccc([N+](=O)[O-])cn2)cc1C	23.3	105.0	-0.7	19.1	·	i	0.97
CS(=O)(=O)Nc1ccc(C(=O)Nc2ccccc2Sc2ccccc2)cc1	3.7	99.7	-0.5	3.4	110.7	i	1.02
Cc1ccc(NC(=O)CC2COc3ccccc3O2)cc1 (stereo not drawn)	10.8	208.5	-2.2	-9.3	99.7	i	0.92
CCOc1ccc(S(=O)(=O)NCc2ccc(OC)cc2)c2cccnc12	0.0	101.4	-1.0	-3.8	100.1	i	0.98
c1ccc2sc(NC3=NCN(Cc4ccc5c(c4)OCO5)CN3)nc2c1	-5.0	96.4	-0.5	-0.5	106.0	i	0.99
CCOc1ccc(CN2CCN(Cc3ccc(C)o3)CC2CCO)cc1 (stereo not drawn)	·	·	·	-0.8	102.4	i	0.98
CCN(CC)c1ccc(N=Cc2ccc(N(CC)CC)cc2O)cc1	42.9	80.9	-3.3	-0.2	86.7	i	1.03
